A1 inh: blocks A1 activity; MEF A1-2A-BIM cells, caspase-Glo luminescence, 3 h; percent of clofoctol signal, DMSO as zero; caspase activation, % (concentration not given with the values); hit rate 0.51% among 21,000;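 active = most replicate scores above 10, or exactly half above 10 with mean activity above 10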;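 also: effector caspase 3 and 7 activity cleaving a DEVD luciferin substrate; 50 nL library stock added to about 30 µL; numbers are from one replicate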
BJeLR viability: BJeLR cell viability reduction | BJeLR fibroblasts viability, CellTiterGlo ATP luminescence, 48 h; HRASV12, hTERT and SV40 LT/ST transformed | viability loss activity score, % (no concentration beside the values) | hit rate 0.64% among 30,000; in the data active = viability loss activity score above about 50%; about a fifth of its hits are not listed in these tables;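 also: higher score means fewer live cells and less ATP luminescence; stock transfer was 50 or 100 nL into about 30 µL; 0% = vehicle wells and 100% = a reference killing control; one replicate is shown; the record names a cut of 85%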
Active calls of the source: *; . = no result given.

SMILES	A1 inh	BJeLR viability
CC(C)NC(=O)Nc1ccc2c(c1)C(=O)N([C@@H](C)CO)C[C@@H](C)[C@@H](CN(C)Cc1ccc(Oc3ccccc3)cc1)O2	1.0	-2.0
O=c1c(-c2cc(O)c(O)c(O)c2)coc2cc(O)c(O)c(O)c12	-4.3	6.0
CCOC(=O)c1c(SC)nc2c(C(F)(F)F)cccc2c1Oc1ccc(OC)cc1	0.0	-3.2
CCCNS(=O)(=O)c1ccc2c(c1)SCC(=O)N2	-0.3	0.0
O=C1OC(c2ccccc2)=N/C1=C\C=C\c1ccccc1	0.0	-0.7
Cc1ccc(S(=O)(=O)Nc2ccc3c(c2)C(=O)N([C@@H](C)CO)C[C@H](C)[C@H](CN(C)Cc2ccccc2)O3)cc1	0.1	-5.5
COc1ccc(NC(=O)N(C)C[C@@H]2Oc3c(NC(=O)C4CCCCC4)cccc3C(=O)N([C@H](C)CO)C[C@H]2C)cc1	.	-5.2
C[C@@H]1CN([C@H](C)CO)C(=O)c2cccc(NC(=O)Nc3ccc4c(c3)OCO4)c2O[C@@H]1CN(C)S(=O)(=O)c1ccc(Cl)cc1	.	-2.1
Cc1ccc(C(=O)/C(=C/N(C)C)Sc2ccc(C(F)(F)F)cn2)cc1	-1.2	2.7
COC(=O)/C=c1\sc2ncnn2c1=O	-0.6	4.3
COc1ccc(OC)c(Nc2nc(-c3cccc(Cl)c3)c3c(n2)-c2ccccc2OC3)c1	-0.2	4.8
CC(C)NC(=O)Nc1cccc2c1O[C@H](CN(C)C(=O)Nc1cccc3ccccc13)[C@@H](C)CN([C@@H](C)CO)C2=O	.	1.3
C[C@H](CO)N1C[C@H](C)[C@@H](CN(C)C(=O)Nc2cccc3ccccc23)Oc2c(NC(=O)c3ccncc3)cccc2C1=O	.	0.4
Cc1ccc(S(=O)(=O)N(C)C[C@H]2Oc3c(NC(=O)C4CC4)cccc3C(=O)N([C@H](C)CO)C[C@H]2C)cc1	.	4.2
CNC[C@@H]1Oc2c(NS(=O)(=O)c3ccc(C)cc3)cccc2C(=O)N([C@H](C)CO)C[C@@H]1C	.	-3.0

3 entries already listed, sorted by the number in A1 inh, rising:
| mol | A1 inh |
| --- | --- |
| COc1ccc(OC)c(Nc2nc(-c3cccc(Cl)c3)c3c(n2)-c2ccccc2OC3)c1 | -0.2 |
| Cc1ccc(S(=O)(=O)Nc2ccc3c(c2)C(=O)N([C@@H](C)CO)C[C@H](C)[C@H](CN(C)Cc2ccccc2)O3)cc1 | 0.1 |
| CC(C)NC(=O)Nc1ccc2c(c1)C(=O)N([C@@H](C)CO)C[C@@H](C)[C@@H](CN(C)Cc1ccc(Oc3ccccc3)cc1)O2 | 1.0 |

Returning to the listing, starting 3 compounds before the break.
SMILES	A1 inh	BJeLR viability
C[C@H](CO)N1C[C@H](C)[C@@H](CN(C)C(=O)Nc2cccc3ccccc23)Oc2c(NC(=O)c3ccncc3)cccc2C1=O	.	0.4
Cc1ccc(S(=O)(=O)N(C)C[C@H]2Oc3c(NC(=O)C4CC4)cccc3C(=O)N([C@H](C)CO)C[C@H]2C)cc1	.	4.2
CNC[C@@H]1Oc2c(NS(=O)(=O)c3ccc(C)cc3)cccc2C(=O)N([C@H](C)CO)C[C@@H]1C	.	-3.0
CC1(C)CC(=O)C2=C(C1)c1c(ccc3ncccc13)NC2C1CC=CCC1 (stereo not given)	1.8	6.3
CC(C(=O)NC1CCCC1)n1c2ccccc2c2cnn(C)c(=O)c21 (stereo not given)	-0.4	-2.5
COC(=O)CC(O)(CCCC(C)(C)O)C(=O)O[C@@H]1C(OC)=C[C@]23CCCN2CCc2cc4c(cc2[C@@H]13)OCO4 (stereo not given in full)	10*	.
Clc1ccccc1/C=N/c1c(-c2ccco2)nc2ccccn12	-1.5	2.2
CCc1ccc(NC(=O)NC(C)(C)C)cc1	-1.8	-4.5
CC/C=C\[C@H](O)[C@H](O)C1=C(C)C(=O)[C@]2(O1)C(=O)N[C@@](OC)(C(=O)c1ccccc1)C2O (stereo not given in full)	-0.1	1.8
COc1cc2ccc(=O)oc2c(OC(C)=O)c1OC(C)=O	1.0	-7.3
CN(Cc1ccccc1)C(=O)Cc1ccccc1	-0.4	4.6
CSc1c(C#N)c(-c2cc(C(C)(C)C)oc2C)nn1-c1ccccc1	-0.3	-3.3
Cc1nc2c([nH]1)C(c1ccc(C(C)C)cc1)C(C#N)=C(N)O2 (stereo not given)	0.5	0.1
Cc1cc(-c2noc(-c3snnc3C)n2)no1	-2.7	-0.6
COC(=O)c1cc(C)nc(Sc2ccccc2NC(C)=O)n1	-0.5	-1.6
O=C(CSCC(=O)c1ccc2c(c1)Cc1ccccc1-2)Nc1ccccc1	-0.1	-0.8
CC(=O)Nc1cc(C(=O)NCCCN2CCC(C)CC2)ccc1S(=O)(=O)c1ccc(Cl)cc1	-0.1	2.5
C[C@H]1CN([C@@H](C)CO)C(=O)c2cccc(NC(=O)C3CCCCC3)c2O[C@H]1CN(C)Cc1ccc(C(=O)O)cc1	.	3.2
C[C@@H]1CN([C@@H](C)CO)C(=O)c2cc(NS(=O)(=O)c3cccs3)ccc2O[C@H]1CN(C)C(=O)NC1CCCCC1	-0.2	2.0
CCCN(CCC)CCNc1cc(C)nc2c(-c3ccccc3OC)c(C)nn12	.	3.4
C[C@H]1CN([C@@H](C)CO)C(=O)c2cccc(NS(=O)(=O)c3cccs3)c2O[C@H]1CN(C)S(=O)(=O)c1ccc(Cl)cc1	.	-1.4
COC(=O)c1ccc2c(=O)n(-c3ccc(C)cc3)c(Nc3ccccc3)nc2c1	.	5.9
C[C@H]1CN([C@@H](C)CO)C(=O)c2cc(NS(=O)(=O)c3ccc(F)cc3)ccc2O[C@@H]1CN(C)Cc1ccccc1	-0.7	3.3
C[C@H]1CN([C@@H](C)CO)C(=O)c2cc(NC(=O)CCCCCC(=O)Nc3ccccc3N)ccc2O[C@H]1CN(C)S(=O)(=O)c1ccccc1	.	1.1
C=CCN(CC=C)C(=O)c1cccc(OC)c1	0.9	-0.9
CCN(CC)S(=O)(=O)c1c(C)cc(C)cc1C	1.2	2.0
O=c1cc(N2CCN(c3ccccc3)CC2)[nH]c(=O)n1-c1ccc(Cl)cc1	.	2.6
CCCCc1ccc(NC(=O)N=S2CCN(c3ncc(C(F)(F)F)cc3Cl)CC2)cc1	0.4	-2.8
COc1ccc(S(=O)(=O)Nc2ccc3c(c2)C(=O)N([C@H](C)CO)C[C@@H](C)[C@@H](CN(C)S(=O)(=O)c2c(C)noc2C)O3)cc1	-0.1	3.1
COc1ccc(CNC(=O)C2CCN(S(C)(=O)=O)CC2)cc1	0.4	-0.4
C[C@@H]1CN([C@H](C)CO)C(=O)c2cccc(NC(=O)Nc3ccc4c(c3)OCO4)c2O[C@H]1CN(C)C(=O)Nc1cccc2ccccc12	.	-0.1
COc1ccc(NC(=O)N(C)C[C@@H]2Oc3ccc(NC(=O)CCC(F)(F)F)cc3C(=O)N([C@H](C)CO)C[C@@H]2C)cc1	0.6	3.6
CNC[C@H]1Oc2c(NC(=O)C3CCCCC3)cccc2C(=O)N([C@H](C)CO)C[C@H]1C	.	-2.1

Reprinted from above for reference:
SMILES	A1 inh	BJeLR viability
C[C@@H]1CN([C@@H](C)CO)C(=O)c2cc(NS(=O)(=O)c3cccs3)ccc2O[C@H]1CN(C)C(=O)NC1CCCCC1	-0.2	2.0
CCCN(CCC)CCNc1cc(C)nc2c(-c3ccccc3OC)c(C)nn12	.	3.4
C[C@H]1CN([C@@H](C)CO)C(=O)c2cccc(NS(=O)(=O)c3cccs3)c2O[C@H]1CN(C)S(=O)(=O)c1ccc(Cl)cc1	.	-1.4

Next part:
SMILES	A1 inh	BJeLR viability
CCc1cc(=O)oc2c(C)c(O)ccc12	-0.8	2.0
CCOC(=O)c1cc(C(=O)OC)c(C)nc1SCC(=O)OC	.	-5.0
C[C@@H]1CN([C@@H](C)CO)C(=O)c2cccc(NC(=O)C3CCOCC3)c2O[C@H]1CN(C)Cc1ccc(C(F)(F)F)cc1	.	5.9
COc1ccc(S(=O)(=O)Nc2cccc3c2O[C@@H](CN(C)Cc2ccc(-c4ccccc4)cc2)[C@H](C)CN([C@H](C)CO)C3=O)cc1	.	1.3
C[C@H]1CN([C@@H](C)CO)C(=O)c2cccc(NC(=O)C3CCCCC3)c2O[C@@H]1CN(C)C(=O)Nc1ccc(F)cc1	.	0.4
CC(=O)Oc1ccc(-c2coc3cc(OC(C)=O)cc(OC(C)=O)c3c2=O)cc1	-2.2	0.6
C[C@H]1CN([C@@H](C)CO)C(=O)c2cccc(NC(=O)c3ccncc3)c2O[C@@H]1CN(C)Cc1ccc(Cl)c(Cl)c1	.	-2.3
COc1ccc(S(=O)(=O)N(C)C[C@@H]2Oc3ccc(NC(=O)Nc4ccc(F)cc4)cc3C(=O)N([C@H](C)CO)C[C@@H]2C)cc1	-0.5	-9.8
COc1ccc(NC(=O)Nc2ccc3c(c2)C(=O)N([C@H](C)CO)C[C@@H](C)[C@H](CN(C)S(C)(=O)=O)O3)cc1	0.3	2.1
COc1ccc(S(=O)(=O)Nc2ccc3c(c2)C(=O)N([C@H](C)CO)C[C@H](C)[C@@H](CN(C)C(=O)NC(C)C)O3)cc1	-0.1	10
COc1ccc(-c2ccnc(SCc3ccc(Cl)cc3Cl)n2)cc1	1.0	4.4
CC(C)(C)OC(=O)N1C(N)=C(C#N)C2(CCOCC2)c2[nH]c(C(F)(F)F)nc21	-0.5	0.7
CCC(C)[C@H]1C(=O)O[C@H](C(C)C)C(=O)N(C)[C@@H](C(C)C)C(=O)O[C@H](C(C)C)C(=O)N(C)[C@@H](C(C)C)C(=O)O[C@H](CC(C)C)C(=O)N1C (stereo not given in full)	45*	79*
Cc1c(-c2nnnn2-c2ccc(F)cc2)cnc2cc3c(cc12)OCO3	0.0	2.4
COc1ccc(CN(C)C[C@@H]2Oc3ccc(NS(=O)(=O)c4ccc(Cl)cc4)cc3C(=O)N([C@H](C)CO)C[C@@H]2C)cc1	-0.4	0.3
CNC[C@@H]1Oc2c(NS(=O)(=O)c3cn(C)cn3)cccc2C(=O)N([C@H](C)CO)C[C@H]1C	.	-1.7
Cc1ccc(S(=O)(=O)Nc2ccc3c(c2)C(=O)N([C@@H](C)CO)C[C@H](C)[C@@H](CN(C)S(=O)(=O)c2ccc(Cl)cc2)O3)cc1	-0.3	0.4
C[C@H]1CN([C@@H](C)CO)C(=O)c2cc(NC(=O)C3CC3)ccc2O[C@@H]1CN(C)Cc1ccc(C(=O)Nc2ccccc2N)cc1	.	-0.8
C[C@H](CO)N1C[C@H](C)[C@H](CN(C)C(=O)Nc2ccc(F)cc2)Oc2c(NS(C)(=O)=O)cccc2C1=O	.	1.2
Cc1ccc(O)c(C(C)(C)C)c1	-0.6	1.5
CCOC(=O)NC1C=CS(=O)(=O)C1 (stereo not given)	-0.3	-4.6
CCN(C(=O)Cn1c(=O)oc2ccccc21)c1cccc(C(F)(F)F)c1	.	6.4
O=C(NC1CCCc2ccccc21)C1=Cc2cc(Cl)ccc2OC1 (stereo not given)	0.1	2.6
C[C@H](CO)N1C[C@H](C)[C@@H](CN(C)Cc2ccncc2)Oc2ccc(N(C)C)cc2C1=O	0.8	2.6
CN(C(=O)CSc1c2c(nc3ccccc13)CCCC2)C1CCCCC1	.	2.8
C[C@H]1CN([C@@H](C)CO)C(=O)c2cc(N(C)C)ccc2O[C@H]1CN(C)C(=O)Nc1ccccc1	0.1	-0.9
Cn1cnnc1SCc1ccc(-c2csnn2)cc1	0.6	-5.2
C[C@H]1CN([C@@H](C)CO)C(=O)c2cc(NC(=O)C3CCCCC3)ccc2O[C@H]1CN(C)C(=O)NC1CCCCC1	0.2	-1.1
C[C@@H]1CN([C@H](C)CO)C(=O)c2cccc(NS(C)(=O)=O)c2O[C@@H]1CN(C)C(=O)Nc1ccc(F)cc1	.	0.0
CCn1c2c(c3cc(C4CCCCC4)ccc31)CCCC2=O	0.5	0.2
CCC(C)Nc1cc(C)c(C#N)c2nc3ccccc3n12 (stereo not given)	-1.1	-0.4
C[C@@H]1CN([C@H](C)CO)C(=O)c2cccc(NS(=O)(=O)c3cn(C)cn3)c2O[C@H]1CN(C)S(=O)(=O)c1ccc(Cl)cc1	.	7.6
CCOc1ccc(N2C(=O)/C(=C/c3ccc(F)cc3)N=C2SC(CC)C(=O)N2CCOCC2)cc1 (stereo not given)	.	-4.7
COc1cc2c(c(OC)c1OC)CCc1cc(O)c(O)cc1-2	-0.7	-2.7
COc1ccc(-c2cc(C(F)(F)F)nc(NC(C)c3ccccc3)n2)cc1OC (stereo not given)	.	0.7
Cn1c(=O)[nH]c2ncn(C)c2c1=O	0.9	-5.0
C[C@H](CO)N1C[C@H](C)[C@H](CN(C)Cc2ccc(C(F)(F)F)cc2)Oc2ccc(NC(=O)Nc3cccc4ccccc34)cc2C1=O	0.3	0.7
CC1(C)CC(=O)c2cc3c(N)c(C(=O)Nc4ccccc4)sc3nc2C1	-0.1	5.6
Cc1cc2c(cc1S(=O)(=O)N1CCCCC1C)OCC(=O)N2 (stereo not given)	-2.7	4.2
FC(F)(F)c1nnc2n1Nc1nc3ccccc3nc1S2	1.7	39
COc1ccc(NC(=O)Nc2ccc3c(c2)C(=O)N([C@@H](C)CO)C[C@@H](C)[C@@H](CN(C)Cc2ccc(C(=O)Nc4ccccc4N)cc2)O3)cc1	.	6.6
CC1=C(C(=O)OCc2ccccc2)OC(N)=C(C#N)C1c1ccc(F)cc1 (stereo not given)	0.3	1.5
Cc1cc(C(=O)Nc2cccc3c2O[C@H](CN(C)S(=O)(=O)c2ccc(F)cc2)[C@H](C)CN([C@@H](C)CO)C3=O)n(C)n1	.	-0.9
O=C(NCC1CC1)Nc1ccccc1	-1.3	0.2
CCc1ccc(NC(=O)C(C)N2C(=O)c3ccccc3C2=O)cc1 (stereo not given)	.	5.4
C[C@@H]1CN([C@@H](C)CO)C(=O)c2cccc(NS(=O)(=O)c3ccccc3)c2O[C@H]1CN(C)C(=O)Nc1ccc(C(F)(F)F)cc1	.	-6.1
CC(=O)Oc1ccc2c(=O)c(Oc3ccc(Cl)cc3)c(C)oc2c1	-0.1	-3.5

Some of the compounds tested, so the mix of outcomes need not match the whole.
